# gsp agonist – qHTS for Agonist of gsp, the Etiologic Mutation Responsible for Fibrous Dysplasia/McCune-Albright Syndrome: qHTS. gsp mutant cells, cAMP HTRF, 30 min; control for the full effect not named in the record. Potency, µM (titrated, usually from 76.9 µM), for inactives: at the top dose activation (cAMP increase), hits mostly activators. 0.13% of 340,000 active. AID 624287, 2012; active = well fitted activation curve with a large enough effect; inconclusive = small, poorly fitted or top-dose-only effect, or another doubt; inactive = no such curve, though single readings can be large or run the other way; cell line not stated here;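 further: phosphodiesterase inhibitor Ro 20-1724 added with compounds to block cAMP breakdown; potency means the concentration at half of the fitted maximal effect; nearly all actives have a fitted effect of over 60% in size; about a fifth of the inactives were tested at one dose only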
#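 Cells in DMEM/10% FBS with G418 were pretreated with compounds in DMSO plus […] (300 uM stock) for 30 min at 37C. cAMP was measured by HTRF (cAMP-d2 plus anti-cAMP antibody-K) after 30 min at room temperature.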
# TRPV1 potentiator – HTS Assay for Compounds that Act as Potentiators of the Vanilloid Receptor 1. Transient receptor potential cation channel subfamily V member 1 (Homo sapiens), Q8NER1. potentiation, % at 8.33 µM. 0.02% of 320,000 active. TRPV1-expressing cells, Fluo-8 calcium influx, capsaicin EC20 potentiation; host cell line not named in the record; control for the full effect not named in the record; active means potentiation above 80%; inconclusive means 30% to 80%; inactive means below 30%; further: 0% is about no effect
#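 TRPV1-expressing cells were cultured overnight at 35.5C and loaded with Fluo-8 calcium dye for 40 to 90 min at room temperature. After a 10 s baseline, compound was added and calcium influx was read kinetically for 3 min (ex 480/em 520 nm).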
# Menin MLL FP FL – qHTS Assay for Inhibitors Targeting the Menin-MLL Interaction in MLL Related Leukemias: Competition With Fluorescein Labeled MLL-derived Peptide. 290,000 tested, under 10 active. AID 1766, 2009. Fluorescence polarization, fluorescein-MLL peptide displacement from menin. FP activity change, % at 61.4 µM; inconclusive = falling polarisation curve, or a change in total fluorescence; inactive = total fluorescence flat and polarisation flat or rising; no compound was filed as active; the % refers to the polarisation; negative = inhibition;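 further: % of control where 0% means no effect; inhibitors lower the polarisation; unlabelled MLL peptide was the positive control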
# Sfp inh – qHTS Assay for Inhibitors of Bacillus subtilis Sfp phosphopantetheinyl transferase (PPTase); 4'-phosphopantetheinyl transferase ffp (Bacillus subtilis), Q9F4F7; Biochemical Sfp PPTase activity, qHTS; Potency, µM, without a hit: max response, negative = inhibition, actives largely listed as inhibitors; 3.5% of 310,000 active; active means well fitted inhibition curve with a large enough effect; inconclusive means small, poorly fitted or top-dose-only effect, or another doubt; inactive means no such curve, though single readings can be large or run the other way;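 further: the enzyme is Sfp with the accession as filed and its product quenches rhodamine fluorescence; potency means the concentration at half of the fitted maximal effect; 0% = enzyme reaction without inhibitor and -100% = no enzyme wells; top concentration of the series not given in the record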
#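 Sfp 15 nM + cpd, 15 min RT; start w/ rhodamine-CoA 5 uM, BHQ-2-YbbR 12.5 uM (final); 50 mM Hepes pH 7.6, 10 mM MgCl2, 0.01% NP-40, 0.01% BSA; read 525/598 nm at 0 and 30 min.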
# D2 PAM – Beta-Arrestin HTS for Positive Allosteric Modulators of the Human D2 Dopamine Receptor: Potentiators. D(2) dopamine receptor (Homo sapiens), P14416. DiscoveRx D2 beta-arrestin cells, luminescence, 90 min; 100% = 57 uM dopamine signal. potentiation, % (concentration not given with the values). 0.23% of 360,000 active. AID 624464, 2012; active = potentiation of 50% or more; inconclusive = 30% to 50%; inactive = 30% or less;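 further: compound concentration not given in the record; tested on top of an EC20 dose of dopamine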
# Target sequence (P14416 whole entry, looked up): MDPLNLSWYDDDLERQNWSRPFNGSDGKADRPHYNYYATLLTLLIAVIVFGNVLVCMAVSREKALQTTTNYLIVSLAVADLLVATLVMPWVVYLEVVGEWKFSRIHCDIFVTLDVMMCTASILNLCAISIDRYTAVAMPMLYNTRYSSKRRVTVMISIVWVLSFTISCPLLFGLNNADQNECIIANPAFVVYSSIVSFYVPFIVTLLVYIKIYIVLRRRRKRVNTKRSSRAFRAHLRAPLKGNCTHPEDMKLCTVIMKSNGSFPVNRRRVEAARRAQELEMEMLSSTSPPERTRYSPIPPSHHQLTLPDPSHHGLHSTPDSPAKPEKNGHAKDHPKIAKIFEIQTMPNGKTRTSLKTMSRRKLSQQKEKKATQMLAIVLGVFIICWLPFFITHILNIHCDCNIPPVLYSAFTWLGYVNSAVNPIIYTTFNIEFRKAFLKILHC
#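 D2 cells co-treated with compound plus 50 nM dopamine (EC20) for 90 min at 37 deg C to detect potentiation. Beta-arrestin recruitment was read as enzyme-fragment luminescence after 1 h at ambient temperature. Full response was set by 57 uM dopamine.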
# ClpP mod – qHTS Assay for Activators of ClpP | 1.9% of 340,000 active | AID 651965, 2013 | ATP-dependent Clp protease proteolytic subunit (Bacillus subtilis (strain 168)), P80244 | Potency, µM (titrated, usually from 57.5 µM), inactives show top-dose activity change, negative = active | purified B. subtilis ClpP, FRET peptide cleavage, 20 min; active = well fitted falling curve with a large enough effect; inconclusive = small, poorly fitted or top-dose-only effect; inactive = no such curve, though single readings can be large or run the other way; further: potency means the concentration at half of the fitted maximal effect; the source files actives as falling curves though it sought activators and does not explain the sign; nearly all actives have a fitted effect of over 65% in size; many hits overshoot -100%
# Target sequence (P80244 whole entry, looked up): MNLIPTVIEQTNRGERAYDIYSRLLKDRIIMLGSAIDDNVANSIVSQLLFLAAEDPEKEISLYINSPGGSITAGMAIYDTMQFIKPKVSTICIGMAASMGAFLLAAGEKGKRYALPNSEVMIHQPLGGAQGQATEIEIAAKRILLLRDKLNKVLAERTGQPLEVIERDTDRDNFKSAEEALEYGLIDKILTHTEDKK
#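 Buffer: 100 mM Tris/HCl pH8, 100 mM KCl, 0.05% low protease BSA, 2.5% glycerol, 0.01% Tween-20. ClpP 10 microg/mL final; 20 min RT; delta FRET normalized to ADEP and DMSO controls.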
# gsp antag – qHTS for Antagonists of gsp, the Etiologic Mutation Responsible for Fibrous Dysplasia/McCune-Albright Syndrome: qHTS. 0.4% of 340,000 active. AID 624288, 2012. Potency, µM (titrated, usually from 76.9 µM), without a hit: top-dose activity change, negative = inhibition, actives largely listed as inhibitors. gsp-mutant cells, cAMP HTRF, 30 min; control for the full effect not named in the record; active = falling curve of any shape with a large fitted effect; inconclusive = falling curve, mostly with a smaller effect; inactive = flat or rising curve; cell line not stated here;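 further: intracellular cAMP measured with PDE inhibitor Ro 20-1724 present during compound exposure; potency means the concentration at half of the fitted maximal effect; on the % scale 0 is the no-effect control and ±100 the full control effect; nearly all actives have a fitted effect of over 65% in size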
#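 Measurement of cellular cAMP by homogeneous time-resolved fluorescence following a 30 min compound exposure at 37C. The PDE inhibitor […] was present throughout; the assay buffer was DPBS with 0.05% BSA and 0.005% Tween 20.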
# * hit, by the source's call; u = inconclusive; x = no result given; & = joins results of further samples; [ ] = dose if it differs, or a comment.
SMILES,gsp agonist,TRPV1 potentiator,Menin MLL FP FL,Sfp inh,D2 PAM,ClpP mod,gsp antag
COc1ccc(/C=N/Nc2ccc(C(=O)O)cc2)cc1OC,2%,-11,3.1,5%,-8,-4.3%,-6%
CC(=O)NC1CC2CCCC(C1)N2S(=O)(=O)c1ccccc1 (stereo not given),-15%,2,4.0,-5%,11,-1.3%,7%
COc1ccc(NC(=O)N2CCC(C(=O)c3ccc4c(c3)OCCO4)CC2)cc1,u,-8,1.4,8%,-4,x,-9%
O=C1C=CC2(O[C@H](c3ccccc3)[C@@H](c3ccccc3)O2)[C@H](Sc2ccccc2O)C1,-7%,x,x,x,-41,-1.0%,-13%
CC(C)CCOC(=O)C1[C@H]2C(=O)N(Cc3cccs3)C[C@]23C=C[C@H]1O3 (stereo not given in full),12%,-9,2.3,1%,-5,-1.6%,-6%
COc1cc(C(=O)Nc2cccc(S(=O)(=O)N3CCCC3)c2)c([N+](=O)[O-])cc1OC,5%[15.4 µM],4,x,x,-30,-3.2%,-6%
CCOC(=O)N1CCN(C2CCCN(C(=O)c3ccccc3SC)C2)CC1 (stereo not given),u,1,-4.7,10%,-6,-1.3%,14%
Cc1csc(SCC(=O)NC2CCCC2)n1,-9%,0,x,x,-1,-2.6%,-6%
O=C(CSc1n[nH]c(-c2ccc(Br)cc2)n1)N1CCOCC1,14%[15.4 µM],x,x,x,-14,u,-6%
COc1ccccc1NC(=O)c1cnc2n(c1=O)CCS2,-21%,6,1.8,14%,-13,-0.3%,-9%
CCN(CC)C(=O)C1=C(C)N(CCC2=CCCCC2)C(=O)C(CC(=O)NCc2ccco2)C1 (stereo not given),-2%,x,x,x,-2,-0.4%,x
S=C(NCCCN1CCOCC1)Nc1cccc(-c2nnc3n2CCCCC3)c1,10%,-4,-0.9,u,12,-3.3%,-1%
CC(=O)NC(=S)Nc1ccc(NC(=S)NC(=O)/C=C/c2ccco2)cc1,-12%[15.4 µM],22,u,-23%,0,0.7%,-1%
CN(C)/C=N/c1cc(=O)[nH]c(=O)n1Cc1ccccc1,x,25,0.0&1.7,16%&21%,-24,1.0%,-1%
COc1ccc2[nH]cc(C(=O)CCl)c2c1,4%,-1,u,8%,-8,1.2%,-6%
NC(=O)C(=O)NN=C1CCC(c2ccccc2)CC1 (stereo not given),26%,-5,4.6,3%,14,-6.6%,8%
CCn1c(SCC(=O)NCC2CCCO2)nnc1-c1c[nH]c2ccccc12 (stereo not given),u,-6,2.9,-3%,-19,1.5%,4%
CC(C)N1CCC(N2CCN(Cc3cccnc3)CC2CCO)CC1 (stereo not given),31%,1,-10,16%,-3,1.7%,13%
O=C(CSc1nc(-c2ccccc2)c(-c2ccccc2)[nH]1)NCC1CCCO1 (stereo not given),9%[15.4 µM],-1,2.1,2%,1,x,1%
O=C(Cc1ccc(F)cc1)NCCc1ccc(F)cc1,-8%,6,0.9,-3%,-8,-3.9%,-14%
CC1=C(C#N)CCC(=O)N1Cc1ccc(C)cc1,-4%,2,3.0,17%,-3,0.3%,-2%
CCOc1ccc(NS(=O)(=O)c2ccc3c(c2)oc(=O)n3C)cc1,-14%,u,-8.5,13%,7,-1.5%,-10%
O=C(Nc1cccnc1)c1cccc(S(=O)(=O)N2CCCCC2)c1,17%[15.4 µM],-19,3.4,10%,-1,x,2%
COc1ccc(CN2C(=O)C(CC(=O)NC(c3ccccc3)c3ccccc3)CC(C(=O)N(C(C)C)C(C)C)=C2C)cc1 (stereo not given),0%,x,x,x,3,-1.2%,x
O=C(Cn1ccc2ccccc21)Nc1ccc2c(c1)OCO2,-29%,-7,-2.0,5%,-4,x,8%
Nc1ccc(C(=O)N/N=C/c2cn(Cc3ccccc3F)c3ccccc23)cc1,u,16,8.0,-11%,-8,-18%,-6%
CCN(CC)c1cc(CS(=O)c2ccccc2)nc(-c2ccccc2)n1 (stereo not given),-29%,x,x,x,-34,-6.2%,-23%
O=C(CCSc1nc(-c2ccco2)cc(C(F)(F)F)n1)NCc1cccs1,23%,-8,-0.3,7%,-12,-0.6%,5%
O=c1oc(-c2ccco2)nc2sc3c(c12)CCCC3,8%,-12,0.3,-14%,3,0.7%,-6%
CC(C)c1cc(C(=O)O)on1,7%,-3,2.3,-15%,4,-3.3%,6%
O=C(CSc1ccc([N+](=O)[O-])cn1)Nc1ccc2[nH]c(=O)[nH]c2c1,16%,1,-2.0,-11%,5,x,8%
COc1ccc(CC(=O)OCN2C(=O)c3ccccc3C2=O)cc1,2%,u,5.8,6%,-16,-3.6%,-12%
COc1cc(C(=O)OCC(=O)NC(N)=O)cc(CN2C(=O)c3ccccc3C2=O)c1OC,u,u,1.5,-13%,-2,-0.4%,8%
COc1ccc(-c2csc(NC(=O)/C(N=Nc3ccccc3)=C(\C)O)n2)cc1,x,0,0.2,9%,x,x,x
O=C1CCCc2nc3nc4ccccc4n3cc21,x,-5,4.1,-7%,x,x,x
O=C(NC(c1ccccc1)c1ccccc1)c1ccc(CO)cc1,14%[15.4 µM],10,4.6,15%,-7,x,-11%
O=C(/C=C/c1ccccc1)Nc1cccnc1,15%,-8,-1.6,-5%,-35,-1.1%,-1%
Cc1nc2ccc(NS(=O)(=O)c3ccc(C)c(C)c3)cc2s1,-25%,9,4.3,7%,8,0.9%,u
O=C(O)c1ccccc1C(=O)NCC(O)COCC1CC=CCC1 (stereo not given),-35%[inhibitor],-20,0.7,17%,-14,0.7%,-11%
Cc1ccc(S(=O)(=O)NNC(=O)c2cnn(-c3ccc(Cl)cc3)c2C(F)(F)F)cc1,1%[15.4 µM],14,-0.7,5%,-4,-4.8%,-6%
Cc1ccccc1-c1cnc2c(c1)C(=O)N([C@@H](C)CO)C[C@@H](C)[C@H](CN(C)Cc1ccccc1F)O2,-27%,x,x,x,1,-1.6%,x
CCc1nnc(SCC(=O)Nc2ccc3ccccc3c2)n1N,1%,x,x,x,-10,-3.7%,-4%
CCOC(=O)c1c(CSc2ccccc2)n(C)c2cc(Br)c(O)c(CN(C)C)c12,-19%[15.4 µM],-9,1.8,-18%,-4,x,-10%
O=[N+]([O-])c1ccccc1NCCNS(=O)(=O)c1ccc(Cl)cc1,-21%,-7,2.8,-2%,-15,2.2%,14%
Oc1cc(O)cc(-c2cc3ccc(O)cc3o2)c1,x,x,x,x,-7,4.7%,-6%
CN(C)C(=O)C1Cc2ccccc2CN1S(=O)(=O)c1ccc(F)cc1 (stereo not given),-11%,-1,-3.5,6%,-3,2.0%,6%
COc1cccc(N2CC(C(=O)Nc3nnc(SCC(=O)NC4CCCC4)s3)CC2=O)c1 (stereo not given),-9%,11,x,u,-5,-0.5%,-12%
COc1ccc(CCNC(=O)COC(=O)C2CC2)cc1OC,-43%[inhibitor],x,x,x,-20,1.9%,5%

# 6 compounds drawn at random from the list so far, as already listed:
SMILES,gsp agonist,TRPV1 potentiator,Menin MLL FP FL,Sfp inh,D2 PAM,ClpP mod,gsp antag
CN(C)/C=N/c1cc(=O)[nH]c(=O)n1Cc1ccccc1,x,25,0.0&1.7,16%&21%,-24,1.0%,-1%
S=C(NCCCN1CCOCC1)Nc1cccc(-c2nnc3n2CCCCC3)c1,10%,-4,-0.9,u,12,-3.3%,-1%
O=C(Cc1ccc(F)cc1)NCCc1ccc(F)cc1,-8%,6,0.9,-3%,-8,-3.9%,-14%
O=C1CCCc2nc3nc4ccccc4n3cc21,x,-5,4.1,-7%,x,x,x
COc1ccc(-c2csc(NC(=O)/C(N=Nc3ccccc3)=C(\C)O)n2)cc1,x,0,0.2,9%,x,x,x
CCOC(=O)c1c(CSc2ccccc2)n(C)c2cc(Br)c(O)c(CN(C)C)c12,-19%[15.4 µM],-9,1.8,-18%,-4,x,-10%

# Other entries.
SMILES,gsp agonist,TRPV1 potentiator,Menin MLL FP FL,Sfp inh,D2 PAM,ClpP mod,gsp antag
CC1=C(C(=O)OCCBr)C(c2cccc3ccccc23)NC(=O)N1 (stereo not given),2%,-1,-4.6,12%,-4,x,4%
CCOc1cc(C2C(C(=O)c3ccccc3)=C(C(=O)OC)Nc3nnnn32)ccc1O (stereo not given),0%,-3,4.6,-2%,-3,0.5%,-12%
CCN1C(=O)[C@H]2[C@@H](c3ccc(C)cc3)N[C@]3(CCCN(Cc4ccc(C)cc4)C3=O)[C@H]2C1=O,u,x,x,x,-2,1.3%,x
O=C(CSc1n[nH]c(-c2ccccc2O)n1)N1CCOCC1,-6%[15.4 µM],-22,-0.7,3.5µM*,-4,x,3%
CNS(=O)(=O)c1cccc(C(=O)OCC(=O)C23CC4CC(CC(C4)C2)C3)c1,5%,-12,3.4,u,-8,-1.2%,-8%
Cc1cc(Br)c(NC(=O)COC(=O)C2CCCCC2)c(Br)c1,46%,x,x,x,-1,-0.8%,18%
O=C(/C=C/c1ccccc1)OCCCCN=C1NS(=O)(=O)c2ccccc21,-14%[15.4 µM],-4,-6.8,5%,3,x,u
COc1ccc(CCN2C(=O)CSC2c2ccc(OC)c(OC)c2)cc1OC (stereo not given),u,6,5.3,17%,0,-1.2%,-6%
Nc1nc(SCC(=O)OCc2ccccc2)[nH]c(=O)c1NC(=O)c1ccco1,-4%,3,1.9,10%,-7,0.0%,-5%

# Screening data (PubChem BioAssay)
